CDC25B-CDK2 inh = human CDC25B-CDK2/CyclinA binding inhibition | AID 1259370 | P30305+P24941 | 0.72% of 94,000 active | HTRF CDC25B-CDK2/CyclinA binding, anti-His/anti-Flag; hits give high values | z-score (no concentration beside the values);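 further: score is relative to mean and SD of negative controls; strong numbers were not always called active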
TAR Tat displ = HIV-1 TAR-Tat binding disruption | HIV-1 TAR RNA, Tat peptide displacement FRET; hits give high values | z-score (test concentration not listed) | 0.6% of 100,000 active | AID 1259389;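 further: score is relative to mean and SD of negative controls; some compounds called inactive have numbers as strong as hits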
* marks the source's active call; other numbers are inactive results; . = no result given.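 How the source made its calls: active means z-score from 3 up in half or more of its runs; inactive means the rest.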

SMILES	CDC25B-CDK2 inh	TAR Tat displ
O=C(NCc1cccs1)c1sc2ncccc2c1-n1cccc1	.	0.38
CCN1CCN(c2nc3ncn(CC(=O)NC(C)C)c(=O)c3s2)CC1	.	2.4
Cc1nc([N+](=O)[O-])c(Sc2nc3ccccc3o2)n1Cc1ccccc1	-0.73	1.4
O=c1nc2c(-c3ccc(Cl)cc3)n[nH]n2c2ccccc12	.	0.93
O=C(Nc1cc(C(F)(F)F)cc(C(F)(F)F)c1)c1cc2ccccc2oc1=O	-1.1	.
Cc1noc(/C=C/N2CCOCC2)c1S(=O)(=O)N1CCCC(C(=O)NC2CCCC2)C1 (configuration not stated)	.	1
COc1ccc(CN2CNc3nc4ccccc4n3C2)cc1	0.28	0.7
COc1ccc(CN2C(=O)c3cccnc3C2=O)cc1S(=O)(=O)NCCC1=CCCCC1	.	0.84
CCc1nnc2c(N3CCN(c4ccccc4)CC3)nc3ccccc3n12	.	-0.55
O=C(CN1C(=O)CSc2sc(S(=O)(=O)N3CCCC3)cc21)NCc1ccc2c(c1)OCO2	.	0.44
Cc1nn(C(C)C(=O)NC2CCC(C)CC2)c(=O)c2cc3sccc3n12 (configuration not stated)	-1.7	-0.2
COc1ccc(-c2c3c(=O)n(C)c(=O)n(C)c3c3n2-c2ccccc2NC3c2cccc(O)c2)cc1 (configuration not stated)	0.63	-3.1
COc1cccc(OCC(O)Cn2c(CO)nc3ccccc32)c1 (configuration not stated)	-0.44	-0.29
CC1(C)Cc2ccccc2C(NC(=O)Nc2ccc(Cl)cc2)=C1C#N	-1.2	1.9
CCCN1C(=O)c2oc3cc(C)cc(C)c3c(=O)c2C1c1ccc(SC)cc1 (configuration not stated)	-0.2	0.5
O=C(CCN1CCc2ccccc2C(O)(c2ccccc2)C1)c1ccc2c(c1)OCCO2 (configuration not stated)	-2	.
CC(C)c1ccc2occ(CC(=O)N(Cc3ccccc3)C3CCS(=O)(=O)C3)c2c1 (configuration not stated)	-1.7	1.6
O=C(CCS(=O)(=O)c1ccc2c(c1)NC(=O)CO2)Nc1ccc(Cl)cc1F	.	0.87
Cc1cc2n(n1)CCCN2C(=O)CCC(=O)N1CCN(C(=O)c2ccco2)CC1	.	2.1
CCN1CCN(c2cc3c(cc2F)c(=O)c(S(=O)(=O)c2cc(C)ccc2C)cn3CC)CC1	.	-0.36
Cc1nc(N2C(=O)c3oc4ccccc4c(=O)c3C2c2ccccc2)sc1C (configuration not stated)	-5	0.8
CC(C(=O)Nc1ccc2c(c1)OCCO2)n1sc2ccccc2c1=O (configuration not stated)	-1.9	2
CC(CC(=O)Nc1ccc(F)c(F)c1)S(=O)(=O)c1ccc2c(c1)CCN2C(=O)C1CC1 (configuration not stated)	.	-0.01
Nn1nnc2ccccc21	-0.86	.
CC(=O)Nc1ccc(NC(=O)CSc2ncccc2C(=O)O)cc1	-3	.
CCN1c2cc(C)ccc2-n2cccc2C12CCN(C(=O)NC1CCCCC1)CC2	.	0.49
CCN1C(=O)Cc2cc(NS(=O)(=O)c3cccc(Cl)c3)ccc21	.	1.9
CC(C)Oc1ccc(-c2nc3c(C#N)c[nH]n3c2NC2CCCC(C)C2C)cc1 (configuration not stated)	-1.3	-2.8
COc1cc(CN2C(=O)c3ccc(F)cc3C2=O)cc(OC)c1OC	0.61	.
COc1cc(NS(=O)(=O)c2ccc(C#N)cc2Cl)cc(OC)c1OC	-2.7	.
COc1cccc(NC(=O)N(Cc2cn(C)c3ccccc23)C2CCCCCC2)c1	-0.63	.
COc1cccc(Nc2nc3ccccc3n3c(C)nnc23)c1	-0.67	-0.44
Cc1ccc(S(=O)(=O)NNC(=O)c2ccccc2N)cc1	-0.71	.
CNC(=O)c1c(NC(=O)c2ccc(S(=O)(=O)N(C)C)cc2)sc2c1CCC2	.	-0.52
O=C1C2C3C=CC(C3=C(c3ccccc3)c3ccccc3)C2C(=O)N1c1cccc2ccccc12 (configuration not stated)	-3.1	.
CSc1cccc(NC(=O)CSc2ncc(S(=O)(=O)c3ccc(Cl)cc3)c(=O)[nH]2)c1	-2.4	-0.43
Cc1nn(CC(=O)NC(C)(C)C)c(C)c1S(=O)(=O)N1CCC(C(=O)N2CCCC2)CC1	.	0.6
CC(C)(C)c1cc(C(=O)O)n(Cc2ccccc2)n1	-1.1	.
COc1ccc(-c2noc(-c3nnn(-c4cc(C)ccc4OC)c3N)n2)cc1	.	2
COc1ccc(NC(=O)C2=Cc3cc(Br)ccc3OC2)c(OC)c1	.	-0.2

One compound at a time, from the list above. Order of values: CDC25B-CDK2 inh | TAR Tat displ
COc1ccc(CN2C(=O)c3cccnc3C2=O)cc1S(=O)(=O)NCCC1=CCCCC1 as listed: . | 0.84
COc1ccc(NC(=O)C2=Cc3cc(Br)ccc3OC2)c(OC)c1 as listed: . | -0.2
Cc1cc2n(n1)CCCN2C(=O)CCC(=O)N1CCN(C(=O)c2ccco2)CC1 as listed: . | 2.1
O=C(CN1C(=O)CSc2sc(S(=O)(=O)N3CCCC3)cc21)NCc1ccc2c(c1)OCO2 as listed: . | 0.44
CCN1CCN(c2cc3c(cc2F)c(=O)c(S(=O)(=O)c2cc(C)ccc2C)cn3CC)CC1 as listed: . | -0.36

Structural class, those above containing a tert-butyl group.
SMILES	CDC25B-CDK2 inh	TAR Tat displ
Cc1nn(CC(=O)NC(C)(C)C)c(C)c1S(=O)(=O)N1CCC(C(=O)N2CCCC2)CC1	.	0.6
CC(C)(C)c1cc(C(=O)O)n(Cc2ccccc2)n1	-1.1	.

(further entries)
SMILES	CDC25B-CDK2 inh	TAR Tat displ
O=C(Nc1nnc2n1CCCS2)c1ccc(S(=O)(=O)N2CCCC2)cc1	.	1.6
C=CCOc1ccc(CNCCSc2nnnn2C)cc1	-1.2	-0.14
CCOC(=O)C1CCN(c2c(N(C)Cc3ccco3)c(=O)c2=O)CC1	-1.6	-0.31
O=C1C(NC2CCCCC2)=C(N2CCCCC2)C(=O)c2ccccc21	5*	.
Fc1ccc(-n2ncc3c(NCCCc4ccccc4)ncnc32)cc1	.	0.36
Cc1c2c(cc3c1oc(=O)c1ccccc13)CN(Cc1ccco1)CO2	-1.8	-0.57
O=C(c1ccco1)N1CCN(c2ncnc3onc(-c4cc(F)cc(F)c4)c23)CC1	.	1.1
CCOC(=O)N1CCC(NC(=O)CCS(=O)(=O)c2ccc3c(c2)CCN3C(C)=O)CC1	.	-0.22
Cc1ncc(-c2ccc(S(=O)(=O)Nc3ccc(F)c(Cl)c3)cc2)o1	.	0.77
Cc1nc2ncnn2c(N2CCN(c3ccccn3)CC2)c1C	.	1.2
Cc1nn(CC(O)Cn2cnc3c2c(=O)n(C)c(=O)n3C)c(C)c1Br (configuration not stated)	-1.9	.
O=[N+]([O-])c1cccnc1N/N=C/c1cccc(C(F)(F)F)c1	-0.35	.
c1csc(-c2nn3c(Cn4cnc5ccccc54)nnc3s2)c1	-0.81	2.1
CCc1ccc(NCN2C(=O)C3=C(CCCC3)C2=O)cc1	-1.2	.
COc1ccc(C(=O)COC(=O)C2CCN(S(=O)(=O)c3cccc4cccnc34)CC2)cc1	-37	.
O=C(c1cc(C(F)(F)F)cc(C(F)(F)F)c1)c1ccccc1C(=O)N1CCOCC1	-1	.
Cc1ccc(Nc2nc(NCCO)nc3c2cnn3C)cc1C	.	3.1
CCOC(=O)c1cc(-c2csc(-c3ccc(C(F)(F)F)cc3)n2)on1	-1	.
COc1ccc(CN2C(=O)c3cccnc3C2=O)cc1S(=O)(=O)N1CCc2ccccc21	.	0.82
O=C(c1cc(-c2cccnc2)n[nH]1)N1CCc2ccccc21	.	2.6
COc1ccccc1C1CC(=O)Nc2c1cnn2-c1nc2ccccc2s1 (configuration not stated)	.	2.4
COc1ccc2[nH]c(C(=O)N3CCCN(C(=O)c4cccs4)CC3)cc2c1	-2.3	.
CCOC(=O)c1c(NC(=O)Cn2cnc([N+](=O)[O-])n2)sc2c1CCCC2	-0.9	1.7
CSc1ncc(Cl)c(C(=O)Nc2nnc(C(C)C)s2)n1	1.9	1.8
CC(=O)N1c2ccc(S(=O)(=O)N3CCCC3)cc2CC1C(=O)NCCc1cnc[nH]1 (configuration not stated)	.	1.1
CCc1ccccc1N1CC(O)=C(c2nc3ccccc3n2C)C1=N	-0.15	0.83
O=c1c2ccccc2cnn1-c1ccc2ccccc2c1	-1.4	1.5
Cc1cc(=O)n(C(C)C(=O)NC2CC2)c2c1c(C)nn2-c1ccccc1 (configuration not stated)	.	0.61
O=C(Nc1ncc(Cc2cc(Cl)ccc2Cl)s1)c1ccccc1I	-2.9	.
CC(C)Oc1ccc(-c2noc(C3CCCN(S(=O)(=O)c4ccc(C(C)C)cc4)C3)n2)cc1 (configuration not stated)	.	0.89
Cn1c(C(=O)N2CCC(C(=O)N3CCCC3)CC2)cc2sccc21	-0.56	.
O=C1c2c(O)cc(O)cc2OC(c2ccc(O)c(O)c2)C1O (configuration not stated)	-1	.
COc1ccc(-n2ncc(C(=O)O)c2-c2ccncc2)cc1	0.37	1
Cc1sc2nc(CN3CCOCC3)[nH]c(=O)c2c1C	-0.86	1.3
NC(N)=NS(=O)(=O)c1ccc(N/C=C\C(=O)c2ccc3ccccc3c2)cc1	18*	.
CC(C)(C)C1CCc2c(sc3nc(CCC(=O)N4CCN(c5ccccn5)CC4)[nH]c(=O)c23)C1 (configuration not stated)	.	1.1
COc1ccccc1N1C(=O)c2ccccc2C1=O	-2.1	.
COc1ccc(C(OCCS(=O)(=O)CCO)(c2ccccc2)c2ccc(OC)cc2)cc1	-2.6	.
CC(C)Oc1ccccc1Oc1ccc(N)cn1	-2.6	.
O=C(c1[nH]nc2c1COc1ccccc1-2)N1CCC(CCN2CCCC2)CC1	.	0.31
CN(C)c1ccc(/C=C/c2cc[n+](Cc3ccc(F)cc3)cc2)cc1	-4.4	.
CCC(CC)C(=O)Nc1nnc(S(=O)(=O)N2CCc3ccccc32)s1	-0.35	2.9
COc1ccc(C(=O)NCC(N)=O)cc1	-1.7	.
CCOC(=O)C1=C(C)NC(C)=C(C(=O)OCC)C1	.	1.1
CC(=O)Nc1ccc2c(c1)CCCC2=O	-0.87	.
CCc1ccc2[nH]c(CSc3nnc(COc4cc(C)ccc4C)n3C)cc(=O)c2c1	.	0.9
N#Cc1c2n(c3c(=O)n(Cc4ccccc4)cnc13)CCCC2	-0.13	0.8
CCOC(=O)C1CCN(S(=O)(=O)c2cc3c4c(c2)CCC(=O)N4CCC3)CC1	.	0.26
O=C(CSc1nc2c(c(C(F)(F)F)n1)CCc1ccccc1-2)NCc1ccco1	-1.1	-1.4
COc1nc(-c2cccs2)cc(-c2ccc(C)cc2)c1C#N	0.42	-0.03
COc1ccc(NCc2cccn2-c2nnc(N3CCC(C)CC3)s2)c(OC)c1	.	-1.9
Cc1nn(CC(=O)NCCN(C)C2CCCCC2)c(=O)c2cccn12	-2	1.8
CCCc1nc2nc(C)cc(Nc3cccc(F)c3)n2n1	-0.52	-0.41
C#CC(O)(c1ccccc1)c1ccccc1	-2.2	1.9
O=S(=O)(CCc1ccccc1)Nc1ccc2c(c1)N(S(=O)(=O)c1ccccc1)CCC2	.	0.48
Cc1cc2nc(CSc3nc4ccc(NC(=O)COc5ccc(F)cc5)cc4s3)cc(=O)n2o1	.	1.1
O=C(NCCCN1CCCC1=O)C1CCCN(C(=O)N2CCOc3ccccc32)C1 (configuration not stated)	.	2.7
CC(C)c1ccc(NC(=O)CN2C(=O)c3ccccc3S2(=O)=O)cc1	-1.9	.
Nc1ncnc2c1ncn2C1CCCO1 (configuration not stated)	-0.79	.
CCOCCCN=C1NS(=O)(=O)C(c2ccc(C)c(C)c2)=C1C	-1.4	-1.4
(more compounds)
SMILES	CDC25B-CDK2 inh	TAR Tat displ
COC(=O)c1[nH]c2ccccc2c1S(=O)c1ccccc1 (configuration not stated)	-0.6	-0.28
O=C(CSc1nnc2ccc3ccccc3n12)Nc1ccc(F)c(Cl)c1	-0.51	.
O=C(CCSc1cccs1)Nc1ccc(Cl)cc1	-0.26	.
CCc1nc2nc(C)cc(Nc3ccc(C)cc3Cl)n2n1	-0.42	1
Cc1cccc(CN2C(=O)N(c3cc(C)cc(C)c3)C3CS(=O)(=O)CC32)c1 (configuration not stated)	.	1.3
Cc1c(C(=O)O)sc2ncn(CC(=O)N3CCCC3)c(=O)c12	-1	0.34
CC(=O)/C(C#N)=C(\N=C\N(C)C)SCc1c(Cl)cccc1Cl	-2	.
CCCNC(=S)Nc1ccc(Cl)cc1	-0.64	.
Cc1ncc(-c2ccc(C)c(S(=O)(=O)Nc3ccc(S(N)(=O)=O)cc3)c2)o1	.	0.88
CCOC(=O)c1c(NC(=O)c2nc3ncccn3n2)sc2c1CCC(C)C2 (configuration not stated)	0.98	1.2
CCOC(=O)C1=C(C)NC(=O)NC1c1ccc(-c2cccc([N+](=O)[O-])c2)o1 (configuration not stated)	-0.78	.
O=C(O)C(=O)CCc1cccs1	-0.98	0.85
CCc1nn2c(=O)cc(CSc3nc4ccc(NC(=O)c5ccco5)cc4s3)nc2s1	.	0.2
Cc1nc(N2CCCCC2)cc(N2CCN(S(=O)(=O)c3cccc(Cl)c3)CC2)n1	-0.5	-0.39
O=C(c1ccc2ncccc2c1)N1CCOCC1	-2.4	.
O=C(Nc1ccc(Br)cc1)c1cnn(-c2ccc(F)cc2F)c1C1CCNCC1	.	0.98
CC1CCC(NS(=O)(=O)c2ccc3[nH]c4c(c3c2)CCCC4)CC1 (configuration not stated)	.	-0.32
CCOc1ccc(C2C(C(=O)c3ccc(C)cc3)=C(C(=O)OC)Nc3nnnn32)cc1 (configuration not stated)	-5.7	0.93

Copied from the list.
CCOC(=O)c1c(NC(=O)c2nc3ncccn3n2)sc2c1CCC(C)C2 (configuration not stated) in CDC25B-CDK2 inh: 0.98
O=C(O)C(=O)CCc1cccs1 in CDC25B-CDK2 inh: -0.98
Cc1cccc(CN2C(=O)N(c3cc(C)cc(C)c3)C3CS(=O)(=O)CC32)c1 (configuration not stated) in TAR Tat displ: 1.3
